VDR inh: Inhibitors of the vitamin D receptor (VDR): qHTS. Vitamin D3 receptor (Homo sapiens), P11473. VDR-SRC2-3 peptide fluorescence polarization, 2 h. Potency, µM, inactives show max response, negative = inhibition, hits mostly inhibitors. 0.93% of 400,000 active; active means well fitted inhibition curve with a large enough effect; inconclusive means small, poorly fitted or top-dose-only effect, or another doubt; inactive means no such curve, though single readings can be large or run the other way; further: series mostly up to about 120 µM
Target sequence (P11473 whole entry, looked up): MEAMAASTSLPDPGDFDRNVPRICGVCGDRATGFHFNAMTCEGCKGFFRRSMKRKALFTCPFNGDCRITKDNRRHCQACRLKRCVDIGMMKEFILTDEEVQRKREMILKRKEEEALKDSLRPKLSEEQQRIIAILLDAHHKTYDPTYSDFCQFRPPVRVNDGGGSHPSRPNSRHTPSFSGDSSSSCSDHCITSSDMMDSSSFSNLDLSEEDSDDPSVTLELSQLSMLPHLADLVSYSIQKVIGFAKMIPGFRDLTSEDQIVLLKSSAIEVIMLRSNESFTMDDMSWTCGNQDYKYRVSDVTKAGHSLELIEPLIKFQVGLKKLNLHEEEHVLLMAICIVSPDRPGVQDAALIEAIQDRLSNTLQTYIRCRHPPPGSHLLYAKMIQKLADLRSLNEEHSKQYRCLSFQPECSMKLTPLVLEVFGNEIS
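Fluorescence polarization assay of small-molecule disruption of VDR binding to coregulator peptide SRC2-3. Compounds and controls pin-transferred, then read after 2 h incubation at ambient room temperature.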
Numbers without * were called inactive. On the % scale 0 is the no-effect control and ±100 the full control effect; potency means the concentration at half of the fitted maximal effect. Some of the compounds tested, so the mix of outcomes need not match the whole.

Start of the listing, in advance:
Results for Cc1ccc(-n2nnnc2C(Cl)c2nnnn2-c2ccc(C)cc2)cc1 ?
VDR inh: 25.1µM*

Results for CCCCOC(=O)C1=C(C)NC(=O)NC1c1ccc(OC)cc1 (configuration not stated) ?
VDR inh: -11.8%

How did CN(CC(=O)Nc1ccc(F)c(F)c1F)C(=O)Cc1ccc2c(c1)OCCO2 do in these assays?
VDR inh: 6.5%

This part in full, from the start:
Results for Cc1ccc(-n2nnnc2C(Cl)c2nnnn2-c2ccc(C)cc2)cc1 ?
VDR inh: 25.1µM*

Results for CCCCOC(=O)C1=C(C)NC(=O)NC1c1ccc(OC)cc1 (configuration not stated) ?
VDR inh: -11.8%

How did CN(CC(=O)Nc1ccc(F)c(F)c1F)C(=O)Cc1ccc2c(c1)OCCO2 do in these assays?
VDR inh: 6.5%

What do the screens show for `CCCC1=[N+](CC(=O)c2ccccc2)CCn2c(C)ccc21`?
VDR inh: 10.2%

Results for O=C(COC(=O)COc1ccccc1)Nc1ncc(Cl)cc1Cl ?
VDR inh: -13.1%

Results for Cn1c(=O)c(=O)n(C)c2cc(NC(=O)c3cccc(F)c3)c(Cl)cc21 ?
VDR inh: 10.5%

What do the screens show for `CCOC(=O)c1cccc(NC(=O)c2cc3cc4ccc(C)cc4nc3s2)c1`?
VDR inh: 4.2%

How did CC(=O)c1ccc(Nc2nc(N3CCOCC3)nc(N3CCOCC3)n2)cc1 do in these assays?
VDR inh: -6.9%

What do the screens show for `Cc1cccc(-c2nnc(-c3ccc4ccccc4c3)o2)c1`?
VDR inh: 10.5%

What do the screens show for `Cc1ccc(NC(=O)CC2C(=O)N(Cc3ccccc3)C(=S)N2NC(=O)c2ccccc2)c(C)c1` (configuration not stated)?
VDR inh: -13.2%

Results for Cc1ccc(C)c(CN2C(=O)c3ccccc3S(=O)c3ccc(C(=O)N4CCC(C)CC4)cc32)c1 (configuration not stated) ?
VDR inh: -6.2%

Results for CC(=O)OC1CCC2C3CCC4OC(=O)CCC4C3CCC12C (configuration not stated) ?
VDR inh: -3.2%

How did CC(=O)/C=C1/C(=O)Nc2ccccc21 do in these assays?
VDR inh: 44.7µM*

What do the screens show for `Cc1sc2ccccc2c1CNC[C@H]1O[C@@H](n2cnc3c(N)ncnc32)[C@H](O)[C@@H]1O`?
VDR inh: -9.8%

What do the screens show for `O=C(c1ccc(N2C(=O)CCC2=O)cc1)N1CCOCC1`?
VDR inh: 10.0%

What do the screens show for `O=C(c1ccccc1)C1CCN(C(=O)c2cccs2)CC1`?
VDR inh: -10.8%

How did Cc1nc2ccc(S(=O)(=O)NC(C(=O)N3CCC(C)CC3)C(C)C)cc2s1 (configuration not stated) do in these assays?
VDR inh: -11.4%

Results for N#Cc1ccc(CSc2nnc(-c3ccccc3)n2Cc2ccco2)cc1 ?
VDR inh: -6.3%

Results for O=C(COc1ccccc1)Nc1nnc(S(=O)(=O)N2CCCCC2)s1 ?
VDR inh: 10.8%

How did O=C(c1ccc(S(=O)(=O)Nc2ccccc2F)cc1)N1CCCCCC1 do in these assays?
VDR inh: -12.2%

Random excerpt: 2 compounds from above, in no set order.
What do the screens show for `O=C(c1ccccc1)C1CCN(C(=O)c2cccs2)CC1`?
VDR inh: -10.8%

What do the screens show for `CCCC1=[N+](CC(=O)c2ccccc2)CCn2c(C)ccc21`?
VDR inh: 10.2%

Next structures:
How did O=C1ON(Cc2ccccc2)C(c2ccccc2)N1c1ccccc1 (configuration not stated) do in these assays?
VDR inh: 2.2%

Results for CCOC(=O)Cn1c(=O)oc2cc(S(=O)(=O)NCC3CCCO3)ccc21 (configuration not stated) ?
VDR inh: 4.8%

How did Cc1cc(NS(=O)(=O)c2ccc(NC(=S)NC(=O)c3ccc(Cl)cc3Cl)cc2)no1 do in these assays?
VDR inh: 5.5%

Results for O=C(CN1C(=O)COc2ccc(S(=O)(=O)N3CCCC3)cc21)N1CCN(c2ccc(F)cc2)CC1 ?
VDR inh: -7.5%

What do the screens show for `Cc1ccc(Oc2nc3ccccn3c(=O)c2/C=C(\C#N)c2nc3ccccc3s2)c(C)c1`?
VDR inh: inconclusive

How did COc1ccc(NC(=O)C2=C(C)NC(=O)NC2c2ccccc2[N+](=O)[O-])cc1 (configuration not stated) do in these assays?
VDR inh: -29.8%

How did COc1ccc(NC(=O)CN(C)S(=O)(=O)c2ccc(Br)s2)cc1OC do in these assays?
VDR inh: -3.4%

How did COc1ccc(CCNC(=O)Cn2c(=O)n(-c3ccc(C)c(C)c3)c(=O)c3c(C)c(C)sc32)cc1OC do in these assays?
VDR inh: 8.6%

How did Cc1cc(C)c(S(=O)(=O)Nc2c(C)[nH]c(=O)[nH]c2=O)c(C)c1 do in these assays?
VDR inh: -5.8%

How did CCOc1cc(CN2CCCCC2)ccc1OC do in these assays?
VDR inh: -18.2%

Results for CCOc1ccccc1Nc1nc(N)nc(CSc2nccc(C)n2)n1 ?
VDR inh: -8.1%

Results for CC(C)(C)c1ccc(CSc2ccc(S(=O)(=O)N3CCOCC3)cn2)cc1 ?
VDR inh: -9.7%

Results for C/C(=N\NC(=O)c1ccccc1N)c1ccc(NC(=O)Cc2ccccc2)cc1 ?
VDR inh: 11.3%

What do the screens show for `COc1cc2c(cc1OC)[C@H](C)N(C(=S)Nc1ccc(F)cc1)CC2`?
VDR inh: -5.6%

What do the screens show for `c1ccc2c(c1)-c1cccc3cncc-2c13`?
VDR inh: 2.0%

How did COC(=O)c1scc(-c2ccc(C)cc2)c1S(=O)(=O)Nc1ccc(N(C)C)cc1 do in these assays?
VDR inh: 18.4%

How did Cc1ccc(S(=O)(=O)N2CCC[C@H]2C(=O)OCC(=O)c2ccc3c(c2)NC(=O)CO3)cc1 do in these assays?
VDR inh: inconclusive

How did C=CCn1c(SCC(=O)c2c(N)n(C3CC3)c(=O)[nH]c2=O)nnc1-c1ccccc1OC do in these assays?
VDR inh: -17.4%

Results for CO/N=C/C(=N\Nc1ccccc1)C(=O)c1ccccc1 ?
VDR inh: -25.5%

Results for CC1CCc2c(sc(NC(=O)c3ccc(Cn4cc([N+](=O)[O-])cn4)o3)c2C#N)C1 (configuration not stated) ?
VDR inh: inconclusive

How did Cc1ccc2c(c1)nnn2C1CCN(S(=O)(=O)c2ccc3ccccc3c2)CC1 do in these assays?
VDR inh: -12.1%

How did CCS(=O)(=O)N1CCN(CC(=O)NC2CCCCC2)CC1 do in these assays?
VDR inh: -3.4%

How did CCOC(=O)Cc1csc(NC(=O)c2c(O)c3ccccc3n(CC(C)C)c2=O)n1 do in these assays?
VDR inh: 25.5%

Results for COc1ccc(C)cc1S(=O)(=O)Nc1ccc2c(c1)N(C(C)=O)CCC2 ?
VDR inh: 6.4%

How did COC(=O)c1sccc1S(=O)(=O)N1CCN(c2cccc(C)c2)C(C)C1 (configuration not stated) do in these assays?
VDR inh: 6.6%

How did CCCCOC(=O)n1c(=O)oc2ccccc21 do in these assays?
VDR inh: 10.1%

What do the screens show for `O=C(NCc1cccc(F)c1)c1ccc(NC(=O)c2nsc3ccccc23)cc1`?
VDR inh: 6.0%

Results for COc1ccc(NC(=O)CSc2nc3cc(OC)c(OC)cc3c3nc(-c4ccccc4)nn23)cc1Cl ?
VDR inh: -20.5%

How did COc1ccc(C2C(C(=O)Nc3ccc(Cl)cc3)=C(C)Nc3nc(SCc4cccc(C)c4)nn32)cc1OC (configuration not stated) do in these assays?
VDR inh: 4.3%

What do the screens show for `COC(=O)CCCCCCCCC(O)CN(C)C` (configuration not stated)?
VDR inh: inconclusive

What do the screens show for `COC(=O)c1c(NC(=O)c2nc3nc(C)cc(C(F)F)n3n2)sc2c1CCC2`?
VDR inh: 13.7%

What do the screens show for `CCOC(=O)CNC(=O)CSc1nnc(-c2ccc(OC)cc2)n1CC`?
VDR inh: -8.6%

What do the screens show for `Cc1ccsc1/C=N\NC(=O)Cn1nnc2ccccc21`?
VDR inh: -9.9%

Results for CCOc1ccc(-c2cc(C(=O)NCc3ccccc3Cl)c3ccccc3n2)cc1 ?
VDR inh: 10.6%

Results for CN(C)c1ccc(C(CNC(=O)c2ccco2)N2CCCC2)cc1 (configuration not stated) ?
VDR inh: -27.0%

Results for CCC1CCCCN1C(=O)c1c[nH]c2ccc(S(=O)(=O)Nc3cccc(OC)c3)cc2c1=O (configuration not stated) ?
VDR inh: 4.9%

Results for Cc1csc2c(N3CCN(C(=O)c4ccc(C(C)(C)C)cc4)CC3)ncnc12 ?
VDR inh: -22.4%

Results for Cc1cc(N)n(-c2ccccc2C)n1 ?
VDR inh: -1.6%

What do the screens show for `COc1ccc(CNC(=O)c2cccc3c2C(=O)N(Cc2cccnc2)C3)cc1`?
VDR inh: -18.4%

Results for COc1cccc(-c2nc3ccc(C(=O)N4CCCC(O)C4)cc3o2)c1 (configuration not stated) ?
VDR inh: 0.2%

How did COC(=O)c1cc2c(-c3ccccc3)cc3ccccn3c-2c1C(=O)OC do in these assays?
VDR inh: 8.9%

What do the screens show for `CC(=O)c1ccc(NC(=O)CN2C(=O)/C(=C/C=C/c3ccccc3)SC2=S)cc1`?
VDR inh: -0.8%

Results for COc1cc(C(=O)CSc2nncn2C)cc(OC)c1OC ?
VDR inh: -11.3%

How did COc1ccc(-n2c3c(cc(C(=O)Nc4ccc(C)cc4)c2=O)C(=O)CCC3)cc1 do in these assays?
VDR inh: -10.5%

What do the screens show for `CCCCNC(=O)c1cc2c(=O)n(CC)c3ccccc3c2s1`?
VDR inh: -17.6%

Results for CC(/C=C/c1ccc2c(c1)OCO2)=N/NC(=O)COc1ccc(C)cc1 ?
VDR inh: -7.3%

What do the screens show for `CC1=C(C(=O)Nc2ccccc2)C(c2cccc(Cl)c2)n2nc(SCC(=O)c3ccc(C)cc3)nc2N1` (configuration not stated)?
VDR inh: -0.7%

Results for Cc1cc(C)c(NC(=O)C2CCN(C(=O)N3CCOc4ccccc43)CC2)c(C)c1 ?
VDR inh: 5.5%

How did Cc1cc2oc(=O)cc(CN3CCCCC3)c2cc1C(C)C do in these assays?
VDR inh: -2.1%

What do the screens show for `O=C(Nc1cccc([N+](=O)[O-])c1)N1CCN(c2ccccc2)CC1`?
VDR inh: -6.3%

What do the screens show for `CC(=O)c1sc(NC(=O)COc2ccc(C(C)C)c(C)c2)nc1C`?
VDR inh: -13.8%

How did C/C(=N\NC(=O)c1cccs1)c1c(O)cc(C)oc1=O do in these assays?
VDR inh: -14.9%

What do the screens show for `O=C(CSC(=O)c1ccccc1)Nc1ccccc1F`?
VDR inh: 79.4µM*

Results for Cc1noc(C)c1COc1cccc(C(=O)OC(C)C(=O)Nc2ccc3c(c2)OCO3)c1 (configuration not stated) ?
VDR inh: -1.0%

How did CCCN1C(=O)c2ccc(C(=O)NC3CCCCC3)cc2C1=O do in these assays?
VDR inh: -7.9%

How did CNC(=O)CCc1nc(-c2ccc(C(C)(C)C)cc2)no1 do in these assays?
VDR inh: 3.3%

Results for C=CCn1c(SCC(=O)Nc2cc(Cl)ccc2C(=O)O)nc2sc(C)c(C)c2c1=O ?
VDR inh: -16.7%

Results for CC(C)(C)c1ccc(C2(C)NC(=O)N(CC(=O)c3ccc[nH]3)C2=O)cc1 (configuration not stated) ?
VDR inh: 0.4%

What do the screens show for `O=C(Oc1cc(Cl)cc(Cl)c1)c1cnc2n(c1=O)CCS2`?
VDR inh: 21.7%

Results for COC(=O)Nc1nnc(COc2ccccc2)s1 ?
VDR inh: 4.4%

How did CCN(C(=O)CSc1nc2n[nH]c(C)c2c(=N)n1-c1cccc(OC)c1)c1cccc(C)c1 do in these assays?
VDR inh: 7.2%

Results for Cc1cc(-c2ccccc2)nc(SCc2ccc(C(=O)O)o2)n1 ?
VDR inh: -13.8%

Results for Nc1nc(-c2ccccc2)ns1 ?
VDR inh: 3.1%

What do the screens show for `O=C(COC(=O)c1ccc([N+](=O)[O-])s1)NCc1ccc(F)cc1`?
VDR inh: 11.6%

What do the screens show for `Clc1ccc(-c2nn3cnnc3s2)c(Cl)c1`?
VDR inh: 3.1%

How did O=C(Nc1nc2ccccc2s1)C1CC(=O)N(c2ccc(Br)cc2)C1 (configuration not stated) do in these assays?
VDR inh: 11.4%

Results for Cc1cc(C=NCCCO)c(C)n1-c1cc(Cl)ccc1Cl ?
VDR inh: 7.6%

How did CC(CCc1ccccc1)NC(=O)COC(=O)c1ccc(NC(N)=O)cc1 (configuration not stated) do in these assays?
VDR inh: -3.2%

What do the screens show for `COc1ccc(OC)c(NC(=O)C2CCCNC2=O)c1` (configuration not stated)?
VDR inh: 3.9%

What do the screens show for `CCOC(=O)CNC(=O)O[C@@H]1C(=O)c2cc(Br)ccc2O[C@H]1c1cccc(OC)c1`?
VDR inh: 7.5%

What do the screens show for `CC1CCCCC1NC(=O)c1ccc(-n2cncn2)c([N+](=O)[O-])c1` (configuration not stated)?
VDR inh: -6.3%

Results for COCC(C)n1c(COc2ccccc2F)nnc1SCC(=O)Nc1oc(C)c2c(C)n[nH]c(=O)c12 (configuration not stated) ?
VDR inh: -4.5%

Results for CCOc1ccccc1CNC(=O)c1cc2c(=O)n(Cc3ccco3)ccc2nc1C ?
VDR inh: 4.7%

How did Cc1cc(Cl)ccc1NC(=S)N1CCOCC1 do in these assays?
VDR inh: -14.0%

What do the screens show for `CC(=O)C(Sc1ccc2nnc(-c3ccc(F)cc3)n2n1)C(C)=O`?
VDR inh: -16.3%

Three compounds out of the list, arranged by length of the SMILES, ascending:
What do the screens show for `Clc1ccc(-c2nn3cnnc3s2)c(Cl)c1`?
VDR inh: 3.1%

Results for Cc1cc(C=NCCCO)c(C)n1-c1cc(Cl)ccc1Cl ?
VDR inh: 7.6%

What do the screens show for `CC(=O)C(Sc1ccc2nnc(-c3ccc(F)cc3)n2n1)C(C)=O`?
VDR inh: -16.3%
